Screening results as filed in PubChem BioAssay.
RGS16-Gao = modulates binding between human RGS16 and Galphao | binding response (% of control), % at 10 µM | AID 1441 | bead-based flow cytometry RGS16-Galphao binding, fluorescence; actives lie on both sides | O15492+P09471 | hit rate 0.38% among 220,000;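 active means below 25% or above 175%, edge rows of some plates excepted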;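 further: Galphao activated by GDP with aluminum fluoride before binding; 100% = wells without compound and 0% = beads without RGS; some results beyond the cut were filed as inactive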
Target sequence (O15492 whole entry, looked up): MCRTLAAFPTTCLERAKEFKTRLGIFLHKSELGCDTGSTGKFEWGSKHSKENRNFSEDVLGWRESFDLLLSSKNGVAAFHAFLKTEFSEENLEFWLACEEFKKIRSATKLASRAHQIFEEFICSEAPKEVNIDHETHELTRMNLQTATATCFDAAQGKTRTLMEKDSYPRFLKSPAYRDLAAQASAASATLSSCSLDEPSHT
Target sequence (P09471 whole entry, looked up): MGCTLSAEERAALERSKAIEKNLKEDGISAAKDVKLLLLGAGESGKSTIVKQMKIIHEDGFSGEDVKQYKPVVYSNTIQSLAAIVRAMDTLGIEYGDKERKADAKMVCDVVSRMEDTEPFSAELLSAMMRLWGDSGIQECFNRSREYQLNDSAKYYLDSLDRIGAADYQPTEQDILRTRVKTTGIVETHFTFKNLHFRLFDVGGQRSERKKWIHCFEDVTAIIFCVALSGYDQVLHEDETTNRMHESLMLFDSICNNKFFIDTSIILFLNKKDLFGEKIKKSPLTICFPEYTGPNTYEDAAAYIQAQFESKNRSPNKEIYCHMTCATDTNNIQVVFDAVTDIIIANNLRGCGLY
PKD1 kinase inh = blocks activity of human protein kinase D1; PKD1 kinase fluorescence polarization assay; hit rate 0.056% among 200,000; inhibition, %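 (about 10 µM by stock and volumes)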; Q15139;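 active means inhibition of 50% or more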;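 further: controls were vehicle for no effect and a reference inhibitor for full effect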
INS promoter inh = TRM-6 insulin promoter activity inhibition | hit rate 0.9% among 130,000 | inhibition, % at 2 µM | TRM-6 cells (human fetal islet line), insulin promoter-eGFP reporter, imaging; reporter expression induced with tamoxifen;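 active means inhibition above the mean plus 3 SD, with well images judged a real hit on visual review, cut at about 60% in these data, passing the limit was not always enough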
HSV augment = increases HSV replication in cells. hit rate 0.005% among 220,000. HSV replication augmentation in cells, fold increase. maximum fold increase;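 active means peak rise of 1.5-fold or more in the series; tested in PC3 cells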;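 further: first round at 10 µM; read as green reporter fluorescence; hits show the peak of a series up to 25 µM; 1 = signal of infected wells without compound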
GALR2 agonist = GALR2 (human) receptor agonism; O43603; GALR2-expressing cells, agonist activation read-out; activation, %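 (tested at 5 µM)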; hit rate 0.48% among 140,000; AID 803;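 active means above mean plus 3 SD of all compounds, about 5% in these data, not always enough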;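 further: 0% = vehicle buffer wells and 100% = reference agonist at full effect; tested in CHO reporter cells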
Target sequence (O43603 whole entry, looked up): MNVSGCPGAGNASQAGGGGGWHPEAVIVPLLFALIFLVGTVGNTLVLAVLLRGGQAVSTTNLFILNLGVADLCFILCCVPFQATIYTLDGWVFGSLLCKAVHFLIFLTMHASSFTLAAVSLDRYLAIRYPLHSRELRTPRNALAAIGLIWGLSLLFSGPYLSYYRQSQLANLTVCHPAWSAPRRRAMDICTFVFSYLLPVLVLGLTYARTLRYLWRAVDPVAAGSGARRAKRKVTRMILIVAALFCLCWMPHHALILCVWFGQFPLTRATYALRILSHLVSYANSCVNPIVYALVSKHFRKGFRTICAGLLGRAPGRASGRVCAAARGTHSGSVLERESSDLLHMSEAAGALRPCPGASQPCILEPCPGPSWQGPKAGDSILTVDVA
INS promoter inh cell count = further read-out of INS promoter inh, marked with its call; normalized cell count, %; measured here: cell count, toxicity; reference of the scale not given here;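 cells exposed to compound for 48 h; stained nuclei by imaging scaled within each plate; lower means fewer cells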
HSV augment primary fold = second read-out of HSV augment, no call of its own (marks repeat the call); fold increase; compound at 10 µM; measured here: primary screen fold increase 10 uM; tested in PC3 cells;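 GFP signal in the first replicate; 1 = infected wells without compound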
Starred values were filed as active, the others as inactive; i = inactive; . = no result given; & = joins results of further samples.

The line under a structure holds: GALR2 agonist	PKD1 kinase inh	HSV augment	INS promoter inh	HSV augment primary fold	INS promoter inh cell count	RGS16-Gao
N=c1ccn(Cc2c(Cl)cccc2Cl)cc1
→ .	.	i	.	0.98	.	105
CC1=NNC(=O)C1Oc1ccccc1 (stereo unspecified)
→ .	.	i	.	1	.	100
O=C(/C=C/c1ccc2c(c1)OCO2)Nc1nc(-c2ccccc2)cs1
→ -1.9	8	i	0	0.71	108	97
CCn1c(Cc2c(C)[nH]c3ccccc23)n[nH]c1=S
→ -1.4	4	i	20	0.98	95	59
O=S(=O)(c1ccc(F)cc1)c1nc(-c2ccccc2F)oc1N1CCCCC1
→ -1.6	-2	i	-29	1	79	101
O=C(Nc1ccc(F)cc1)N1CCCN(c2ccc(C(F)(F)F)cn2)CC1
→ .	.	i	.	1.1	.	98
O=C(Nc1ccc([N+](=O)[O-])c(NC(=O)C2CCCO2)c1)C1CCCO1 (stereo unspecified)
→ 0.2	-6	i	13	0.95	103	101
CCOC(=O)C1(CC)CC(CSc2nc3ccccc3[nH]2)OC1=O (stereo unspecified)
→ -0.1	-6	i	.	0.99	.	101
O=c1c2ccccc2nc(-c2ccc(Cl)c(Cl)c2)n1O
→ -1.8	-1	i	42	0.87	68	121
Cc1cc(Nc2cc(F)ccc2C)n2ncnc2n1
→ -0.9	-4	i	.	0.76	.	100
CN(CCCNC(=O)c1cc2c(=O)[nH]c3ccccc3c2n1C)Cc1ccccc1
→ .	0	i	.	0.87	.	97
COc1ccc(OC)c(CN(CCCN2CCOCC2)S(=O)(=O)c2ccc(NC(C)=O)cc2)c1
→ -3.1	8	i	34	1	163	95
COc1ccccc1NC(=O)c1nn(-c2ccc(Cl)cc2)ccc1=O
→ -1.0	-2	i	43	0.94	87	99
COc1cc(/C=C2/C(=O)c3cccc([N+](=O)[O-])c3C2=O)c(Br)cc1O
→ -1.6	1	i	-4	0.93	125	80
COc1ccc(OCC(=O)Nc2cccc(NC(=O)c3ccco3)c2)cc1
→ .	-5	i	.	1	.	103
CC1(C)OC(=O)C(=CNc2cccc(O)c2)C(=O)O1
→ -2.8	-12	.	.	.	.	95
CCN(CC)C(=O)c1sc(NC(=O)c2cc(-c3ccc(C)s3)nc3ccccc23)c(C(=O)OC)c1C
→ -0.6	-1	i	9	0.8	86	95
O=C(Nc1ccccc1)C1=C[C@@H](C2CC2)C[C@@H](OCCCCO)O1
→ .	-3	i	.	0.92	.	98
Cc1cc(Nc2ccccc2)c2c([N+](=O)[O-])cc(C)c(C)c2n1
→ -4.5	5	i	-54	1	106	139
CCOC(=O)C1(CCOc2ccccc2)CCN(Cc2ccc3nonc3c2)CC1
→ .	14	i	0	1.3	116	101
CCCCc1ccc(N/C(N)=N/c2nc(C)cc(C)n2)cc1
→ .	.	i	.	0.68	.	100
Cc1ccc(C(c2nnnn2C2CCCCC2)N2CCc3ccccc32)cc1 (stereo unspecified)
→ -0.8	3	i	6	1.1	71	111
Cc1nn(-c2ccccc2)c(N2CCCC2)c1/C=N/NC(=O)c1cccc(S(=O)(=O)Nc2ccc(Cl)cc2)c1
→ -0.4	3	i	-44	0.92	122	105
CCOn1c(=O)c(-c2cccs2)[n+]([O-])c2ccccc21
→ -1.7	-1	i	29	1	165	103
O=C(CCS(=O)(=O)c1ccc(Br)cc1)N1CCN(Cc2ccccc2)CC1
→ -1.5	3	i	.	0.93	.	101
COc1ccc(OC)c(-c2csc(NC(=O)C3=NN(c4ccccc4)C(=O)CC3)n2)c1
→ .	3	i	.	0.96	.	98
CCCOc1ccc(C(CC(=O)O)NC(=O)CC(c2ccccc2)c2ccccc2)cc1 (stereo unspecified)
→ .	8	i	.	0.94	.	100
O=C(N/C=N/OCc1cccc(C(F)(F)F)c1)N1OC[C@@H]2COc3ccc4ccccc4c3[C@@H]21
→ -2.0	0	i	-350	1	83	84
COc1cc(/C=C/c2ccc3cccc([N+](=O)[O-])c3n2)ccc1OCC#N
→ 1.4	0	i	-13	0.8	69	115
O=c1cc2ncc(-n3cc([N+](=O)[O-])cn3)cn2[nH]1
→ .	-2	i	27	0.87	101	110
CN(C)C(=O)CN1CCN(Cc2nc(CC3CC3)no2)CC1
→ .	.	i	.	0.9	.	101
CN(CC(=O)N1CCCC1)S(=O)(=O)c1cc(Cl)ccc1Cl
→ -0.8	-7	i	14	1	97	97
CN(C)S(=O)(=O)c1cc(C(=O)NCC2CCCO2)c(Cl)cc1Cl (stereo unspecified)
→ -1.4	-4	i	-67	0.91	64	108
O=C(O)CC12CC3CC(C1)CC(n1ncc(NCc4ccco4)c(Cl)c1=O)(C3)C2
→ .	.	i	.	1.1	.	97
O=C(Cc1cc(=O)[nH][nH]1)N/N=C/C=C/c1ccccc1
→ -0.9&-1.2	-10&-12	i	0&21	0.76	60&79	100&90
O=C(CNc1ccc2c(c1)OCO2)N/N=C\c1cn(Cc2ccc(F)cc2)c2ccccc12
→ -0.8	-6	i	-89	0.91	143	84
CCOc1ccc(CC(=O)Nc2sc(Cc3ccccc3)c(C)c2C(N)=O)cc1OCC
→ -1.3	-2	i	23	0.92	142	93
CCOc1cc(C(=O)Nc2ccc(N3CCOCC3)cc2)cc(Br)c1OC
→ .	-3	i	-43	0.82	73	107
CCOc1ccc2oc(C(=O)OCC(=O)NC(=O)NC)c(C)c2c1
→ .	.	i	.	0.78	.	102
CCc1ccc(C2CC(c3ccccc3)n3ncnc3N2)cc1 (stereo unspecified)
→ -1.9	-11	i	.	0.9	.	109
COc1ccccc1OCC(=O)Nc1ccc(CSc2ccccc2)cc1C
→ -2.7	-2	i	-4	1	88	91
O=C(COC(=O)c1ccccc1[N+](=O)[O-])c1ccc(C2CCCCC2)cc1
→ 0.6	-5	i	-12	1.1	82	112
CCC(C)CN1CCC(CO)(Cc2ccccc2Cl)CC1 (stereo unspecified)
→ .	-16	i	.	1	.	102
CN(C)C(=O)c1ccc(-n2cccn2)nc1
→ .	0	i	-63	0.97	79	95
CC(C)OC(=O)CSc1nnc(-c2ccccn2)n1C
→ -0.8	-14	i	-18	0.91	106	108
Cc1cccc(NC(=O)CSc2nnc(-c3ccc(S(=O)(=O)N4CCOCC4)cc3)n2C)c1
→ -2.3	-2	i	-10	1	101	103
COc1cc(NS(=O)(=O)c2ccc(N=Cc3c(C)[nH]n(-c4ccccc4)c3=O)cc2)nc(OC)n1
→ -4.1	11	i	-4	0.86	99	101
Cc1cc2c(ccc3[nH]onc32)n1
→ -1.2	9	i	.	1.3	.	102
CCOc1ccc(NCc2cc3cc(OC)ccc3[nH]c2=O)cc1
→ .	.	i	.	0.97	.	107
Fc1cccc2sc(Nc3nc4cc5c(cc4s3)OCCO5)nc12
→ 4.8	-4	i	16	0.82	129	108
O=C(CCCc1ccccc1)NCCCN1CCOCC1
→ -3.2	2	i	6	0.82	156	99
CCCS(=O)(=O)N1CCCC(C(=O)NCCc2ccc(Cl)cc2)C1 (stereo unspecified)
→ -1.4	-6	i	.	0.98	.	104
O=C1c2ccccc2C(=O)N1CCCc1nc(-c2ccccn2)no1
→ -2.9	0	i	36	1.1	131	102
CC(C)Nc1nc(NC(C)C)nc(SCC(N)=O)n1
→ .	-3	i	.	1	.	101
COc1ccccc1C1CC(c2ccc(Cl)cc2)Nc2ncnn21 (stereo unspecified)
→ -1.7	1	i	53	0.81	152	99
CCC(C(=O)Nc1c[nH]c(=O)[nH]c1=O)c1ccccc1 (stereo unspecified)
→ -0.4	7	i	-6	0.99	84	94
CC(=N)c1c(O)c2ccccc2oc1=O
→ .	.	i	.	1	.	96
CCN(CC)C(=S)Nc1ccc(C(=O)OC)cc1
→ .	-5	i	.	0.94	.	49
CC1CCCN(C(=O)COc2ccc(NC(=O)c3cccs3)cc2)C1 (stereo unspecified)
→ .	0	i	18	1.1	111	95
Cc1cc(N2CCC(C)CC2)nc(NCc2ccccc2)n1
→ 0.1	7	i	-107	0.55	99	98

Carrying on.
The line under a structure holds: GALR2 agonist	PKD1 kinase inh	HSV augment	INS promoter inh	HSV augment primary fold	INS promoter inh cell count	RGS16-Gao
COC(=O)c1cc(=O)n(Cc2ccc(OC)cc2)c(=NCc2ccc(OC)cc2)s1
→ .	-1	i	.	0.92	.	105
CC(=O)c1cnc(SCc2ccc(Cl)cc2)nc1C
→ .	-6	i	-8	0.88	63	102
CCn1c(SCC(=O)Nc2nccs2)nnc1-c1ccc(C)cc1
→ 1.7	-1	i	3	0.87	56	114
C/C(=N\NC(=O)c1ccccc1O)C1C(=O)c2ccccc2C1=O
→ -3.2	2	i	48	0.83	132	103
COc1ccc2cc(C(=O)O)ccc2c1
→ -2.8	-8	i	9	1	81	97
Cc1ccc(-n2nc(C)c3c(C)onc3c2=O)cc1
→ .	.	i	.	0.89	.	110
OC1(c2cccnc2)CCN(Cc2nnnn2C2CCCCC2)CC1
→ -4.0	-8	i	.	0.98	.	101
O=C(NCc1ccccn1)c1ccc(COc2ccc(Cl)cc2)o1
→ -3.5	-2	i	-9	0.98	218	103
c1ccc2oc(-c3[nH]ncc3CN(Cc3ccncc3)CC3CCCO3)cc2c1 (stereo unspecified)
→ .	0	i	-30	0.86	127	106
CC(NC(=O)c1ccccc1NC(=O)c1ccco1)c1ccccc1 (stereo unspecified)
→ -1.9	9	i	.	0.94	.	98
CCC(C)C(=O)Nc1nnc(SCC(=O)NC(C)(C)C)s1 (stereo unspecified)
→ .	-4	i	-17	0.97	143	102
Cc1ccc(/C(CSc2nccn2-c2ncc(C(F)(F)F)cc2Cl)=N\O)cc1
→ -0.7	-1	i	13	1	56	101
O=C(O)C1CCCCC1C(=O)NCc1ccccc1 (stereo unspecified)
→ -1.2	-7	i	12	1	121	99
N#CCCN1CCN(S(=O)(=O)c2ccc(S(=O)(=O)NCc3ccccc3)cc2)CC1
→ -0.9	-12	i	-60	1	120	85
CCN(CCCNC(=O)CN1C(=O)COc2ccccc21)c1ccccc1
→ -1.0	-9	i	.	0.87	.	101
C=CCn1c(N2CCN(c3ccc(OC)cc3)CC2)nc2c1c(=O)n(C)c(=O)n2C
→ .	-9	i	.	0.96	.	95
S=c1nc(C2COc3ccccc3O2)[nH][nH]1 (stereo unspecified)
→ .	-12	i	.	0.98	.	80
CCNc1nc2c(c(=O)[nH]c(=O)n2C)n1CC(C)C
→ -0.7	0	i	.	1	.	103
Cc1cc(Cl)c2ccc3ccccc3c2n1
→ .	-3	i	.	0.71	.	104
CC1(C)N=C(N)NC(Nc2ccccc2)=N1
→ -0.8	-6	i	0	1.1	97	100
Cc1ccc(-c2nc(CSCC(=O)Nc3cc(C)on3)c(C)o2)cc1
→ -2.5	4	i	.	0.87	.	103
O=C(c1cc2ncc(Br)cn2n1)N1CCOCC1
→ -1.2	-10	i	-41	0.94	48	101
O=C(NCc1ccccc1)N1CCN(c2ccc(F)cc2)CC1
→ -0.7	-5	i	-7	1	100	114
O=S(=O)(c1ccccc1)c1nc(NCc2ccccc2)sc1Cl
→ -2.4	10	i	19	0.81	128	94
Cc1ccc(S(=O)(=O)CCc2nnc(NC(=O)CCl)s2)cc1C
→ .	-2	i	.	1.1	.	108
O=c1[nH]c2ccccc2n1C1=CCCC1
→ 1.0	-9	i	.	0.86	.	94
CCSc1nc(=S)cc(C)[nH]1
→ .	.	i	.	0.96	.	100
COc1ccc(C(=O)C(C)Oc2cccc(NC(=O)c3cccc([N+](=O)[O-])c3)c2)cc1 (stereo unspecified)
→ -1.3	6	i	24	0.95	95	29
CCCCn1cnc2c(oc3nc4c(cc32)CCCC4)c1=O
→ .	.	i	.	1	.	103
C=CCNC(=O)c1onc(CSc2ccc(F)cc2)c1C(=O)O
→ -2.7	-21	i	22	0.91	196	106

Part of the list above, reduced to HSV augment primary fold and GALR2 agonist.
structure	HSV augment primary fold	GALR2 agonist
CCOc1ccc(NCc2cc3cc(OC)ccc3[nH]c2=O)cc1	0.97	.
O=S(=O)(c1ccccc1)c1nc(NCc2ccccc2)sc1Cl	0.81	-2.4
COc1cc(/C=C/c2ccc3cccc([N+](=O)[O-])c3n2)ccc1OCC#N	0.8	1.4

Ordered by the number under RGS16-Gao (falling): three of the compounds above.
Structure	RGS16-Gao
O=C(NCc1ccccc1)N1CCN(c2ccc(F)cc2)CC1	114
CC1(C)N=C(N)NC(Nc2ccccc2)=N1	100
CC(NC(=O)c1ccccc1NC(=O)c1ccco1)c1ccccc1 (stereo unspecified)	98
